Insulin prom inh – inhibitors of insulin promoter-driven GFP, primary screen, imaging, TRM-6 cells (human fetal islet line), eGFP reporter, cell count. reporter expression induced with tamoxifen. inhibition, % at 2 µM. 0.9% of 130,000 active;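 active means inhibition above the mean plus 3 SD, with well images judged a real hit on visual review, cut at about 60% in these data, passing the limit was not always enough; inconclusive means inhibition over the cutoff but images rejected on review; inactive means inhibition not above the cutoff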
RGS16-Gao HTS – modulators of RGS16 binding to Galphao, primary screen, biochemical, human proteins, multiplexed bead flow cytometry. Regulator of G-protein signaling 16 (Homo sapiens) + Guanine nucleotide-binding protein …. bead-based flow cytometry RGS16-Galphao binding, fluorescence; actives lie on both sides. binding response (% of control), % at 10 µM. 0.38% of 220,000 active. AID 1441, 2008;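 active means below 25% or above 175%, edge rows of some plates excepted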;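 further: Galphao activated by GDP with aluminum fluoride before binding; 100% = wells without compound and 0% = beads without RGS; some results beyond the cut were filed as inactive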
Target sequence (O15492 whole entry, looked up): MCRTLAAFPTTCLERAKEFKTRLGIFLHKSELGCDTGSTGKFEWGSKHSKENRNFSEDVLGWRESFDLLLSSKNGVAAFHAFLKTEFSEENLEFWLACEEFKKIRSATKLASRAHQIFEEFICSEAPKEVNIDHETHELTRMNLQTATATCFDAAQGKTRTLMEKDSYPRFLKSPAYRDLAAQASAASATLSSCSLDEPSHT
Target sequence (P09471 whole entry, looked up): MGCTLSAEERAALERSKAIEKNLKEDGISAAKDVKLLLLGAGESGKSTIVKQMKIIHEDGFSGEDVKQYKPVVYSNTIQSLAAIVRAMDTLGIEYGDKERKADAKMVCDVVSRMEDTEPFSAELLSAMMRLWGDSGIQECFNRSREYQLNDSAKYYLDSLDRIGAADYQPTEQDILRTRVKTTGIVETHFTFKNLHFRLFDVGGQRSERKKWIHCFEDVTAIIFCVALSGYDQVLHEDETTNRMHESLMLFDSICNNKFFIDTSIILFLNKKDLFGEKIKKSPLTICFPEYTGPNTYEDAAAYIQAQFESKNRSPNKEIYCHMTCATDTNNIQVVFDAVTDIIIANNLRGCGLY
HSV replic up – enhancers of HSV replication in host cells, fold increase, host cell viability. AID 1956, 2009. 0.005% of 220,000 active. maximum fold increase. HSV replication augmentation in cells;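 active means peak rise of 1.5-fold or more in the series; inconclusive means self-fluorescent or not available for retest; tested in PC3 cells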;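 further: first round at 10 µM; read as green reporter fluorescence; hits show the peak of a series up to 25 µM; 1 = signal of infected wells without compound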
PKD1 inh – inhibitors of human PKD1 kinase, biochemical, fluorescence polarization; Serine/threonine-protein kinase D1 (Homo sapiens), Q15139; PKD1 kinase fluorescence polarization assay; inhibition, %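 (about 10 µM by stock and volumes)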; 0.056% of 200,000 active; AID 797, 2007;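 active means inhibition of 50% or more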;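 further: controls were vehicle for no effect and a reference inhibitor for full effect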
GALR2 ag – GALR2 receptor agonists, primary screen, cell-based; Galanin receptor type 2 (Homo sapiens), O43603; GALR2-expressing cells, agonist activation read-out; activation, %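 (tested at 5 µM)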; 0.48% of 140,000 active; AID 803, 2007;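 active means above mean plus 3 SD of all compounds, about 5% in these data, not always enough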;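 further: 0% = vehicle buffer wells and 100% = reference agonist at full effect; tested in CHO reporter cells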
Target sequence (O43603 whole entry, looked up): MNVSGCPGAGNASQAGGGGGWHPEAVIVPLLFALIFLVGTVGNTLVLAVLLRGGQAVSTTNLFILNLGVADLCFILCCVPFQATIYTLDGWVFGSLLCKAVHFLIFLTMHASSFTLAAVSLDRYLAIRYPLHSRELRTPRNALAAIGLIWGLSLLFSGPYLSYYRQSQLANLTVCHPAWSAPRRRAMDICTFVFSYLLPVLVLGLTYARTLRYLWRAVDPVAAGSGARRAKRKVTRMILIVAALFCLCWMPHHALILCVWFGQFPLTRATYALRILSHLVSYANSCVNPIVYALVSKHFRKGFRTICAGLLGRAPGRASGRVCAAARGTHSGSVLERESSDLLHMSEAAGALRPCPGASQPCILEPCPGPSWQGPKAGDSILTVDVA
Insulin prom inh cell count – further read-out of Insulin prom inh, marked with its call; normalized cell count, %; measured here: cell count, toxicity; reference of the scale not given here;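 cells exposed to compound for 48 h; stained nuclei by imaging scaled within each plate; lower means fewer cells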
HSV replic up primary fold – second read-out of HSV replic up, no call of its own (marks repeat the call); fold increase; compound at 10 µM; measured here: primary screen fold increase 10 uM; tested in PC3 cells;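 GFP signal in the first replicate; 1 = infected wells without compound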
Numbers without * were called inactive; i = inactive; ? = inconclusive; . = no result given.

SMILES	Insulin prom inh	Insulin prom inh cell count	RGS16-Gao HTS	HSV replic up	HSV replic up primary fold	PKD1 inh	GALR2 ag
COc1ccc(N2CCN(C(=O)CSc3nnc(-c4ccc5[nH]c(C)c(C)c5c4)o3)CC2)cc1	7	117	84	i	0.87	-10	-1.3
COC(=O)c1ccc(CNC(=O)CNc2cc(C(F)(F)F)ccc2N2CCOCC2)cc1	.	.	103	i	0.93	10	-2.5
CC(=O)NNC(=S)NC(=O)c1ccc(C)cc1	29	108	101	i	1	1	.
COc1ccc(CCNC(=O)CSc2ccc(-c3ccccc3)nn2)cc1	.	.	97	i	1.1	1	-0.4
COc1cccc(C2=NOC(C(=O)Nc3ccccc3SC)C2)c1 (stereo not given)	-286	91	108	i	0.94	-5	-2.8
S=C(Nc1ccc(Cl)cc1Cl)N1CCOCC1	-42	115	117	i	0.95	-12	0.1
O=C(c1ccc([N+](=O)[O-])cc1)N(Cc1ccccc1)c1ccccn1	.	.	104	i	0.93	4	.
CCCNC(=O)COC(=O)c1ccccc1OCC(=O)Nc1ccc(Br)cc1	7	175	100	i	0.9	-6	-0.1
Cc1cc(C)cc(NC(=O)CC23CC4CC(C2)CC(n2nnc(C)n2)(C4)C3)c1	-7	114	83	i	0.94	-11	-1.2
O=C(CSc1nnc(-c2cccs2)n1-c1ccccc1)N1CCN(C(=O)c2ccco2)CC1	.	.	88	i	0.96	4	-1.3
CCc1cc(=O)oc2cc(OCC(=O)O)c(Cl)cc12	57	80	102	i	0.93	4	-1.3
COc1cccc(CNC(=O)C2CCN(S(=O)(=O)c3cnc[nH]3)CC2)c1	.	.	101	i	1.1	-6	-0.3
CSc1ncccc1C(=O)NCc1ccc(C)cc1	-8	92	-64	i	0.97	1	-0.8
COC(=O)[C@@H](NC(=O)Nc1ccc(C(C)=O)cc1)C(C)C	.	.	99	i	1.1	-3	-1.8
CC(C)c1ccc(NC(=O)N2CCC(c3nc4ccccc4o3)CC2)cc1	-6	155	108	i	0.82	-11	-1.3
Cc1nn(-c2ccccc2)c(C)c1/C=N/NC(=O)c1ccccc1NS(=O)(=O)c1cccs1	13	186	103	i	0.94	-6	0.1
COc1ccc(NC(=O)CS(=O)CC(=O)NCC2OCCc3ccccc32)cc1 (stereo not given)	.	.	96	i	0.92	-1	.
CCCCOc1ccc(NC(=O)C2CC=CCC2C(=O)O)cc1 (stereo not given)	.	.	.	i	0.76	2	-0.8
O=C(c1ccccc1)N1CCC(=O)N1c1ccccc1	-3	135	102	i	1.1	6	0.2
COCCNC(=O)CN(C(=O)CCC(=O)Nc1ccccn1)c1ccc(F)c(Cl)c1	.	.	103	i	1.1	-22	-2.1
Cc1ccccc1Cn1c(=O)n(Cc2ccco2)c(=O)c2ccccc21	42	95	92	i	0.81	-5	0.5
O=C(CCN1C(=O)c2ccccc2C1=O)NCCCn1ccnc1	.	.	101	i	0.86	-7	.
CCOC(=O)C1=C(O)/C(=C/c2ccc(OCC(=O)O)c(OCC)c2)SC1=Nc1ccccc1	36	118	101	i	0.91	-3	.
Cc1cc(C)c(C)c(S(=O)(=O)N[C@@H](C)C(=O)OCC(N)=O)c1C	33	176	101	i	1.1	8	.
O=P(O)(CN1CCCCCC1)CN1CCCCCC1	4	110	100	i	1.1	-3	-1.1

6 entries picked at random from those above:
SMILES	Insulin prom inh	Insulin prom inh cell count	RGS16-Gao HTS	HSV replic up	HSV replic up primary fold	PKD1 inh	GALR2 ag
COC(=O)c1ccc(CNC(=O)CNc2cc(C(F)(F)F)ccc2N2CCOCC2)cc1	.	.	103	i	0.93	10	-2.5
Cc1cc(C)cc(NC(=O)CC23CC4CC(C2)CC(n2nnc(C)n2)(C4)C3)c1	-7	114	83	i	0.94	-11	-1.2
Cc1cc(C)c(C)c(S(=O)(=O)N[C@@H](C)C(=O)OCC(N)=O)c1C	33	176	101	i	1.1	8	.
COc1cccc(CNC(=O)C2CCN(S(=O)(=O)c3cnc[nH]3)CC2)c1	.	.	101	i	1.1	-6	-0.3
CC(C)c1ccc(NC(=O)N2CCC(c3nc4ccccc4o3)CC2)cc1	-6	155	108	i	0.82	-11	-1.3
CCCCOc1ccc(NC(=O)C2CC=CCC2C(=O)O)cc1 (stereo not given)	.	.	.	i	0.76	2	-0.8

(more compounds)
SMILES	Insulin prom inh	Insulin prom inh cell count	RGS16-Gao HTS	HSV replic up	HSV replic up primary fold	PKD1 inh	GALR2 ag
CC12CC(c3ccccc3O1)C(C(=O)N1CCOCC1)C(=O)N2 (stereo not given)	71*	114*	94	i	0.85	-4	-3.0
CC(=O)Nc1ccc(NC(=O)CCCSc2nc3ccccc3s2)cc1	-13	65	94	i	0.85	1	.
Cc1ccc(CN(c2ccc(C(=O)Nc3ccc4c(c3)OCO4)cc2)S(C)(=O)=O)cc1	.	.	96	i	0.87	7	-3.7
COc1ccc(C(=O)NCCCn2ccnc2)cc1[N+](=O)[O-]	.	.	101	i	0.96	.	.
Cc1nc2sc(C(=O)OCC(=O)N3c4ccccc4CC3C)c(C)c2c(=O)[nH]1 (stereo not given)	.	.	103	i	0.92	-2	.
O=C1c2ccccc2C(=O)N1C/C=C/CN1C(=O)c2ccccc2C1=O	14	180	94	i	0.88	-6	-0.4
COc1ccc(CCNC(=O)CCC(=O)N2CCN(S(=O)(=O)c3ccc(Cl)cc3)CC2)cc1OC	9	66	100	i	1.1	-3	-3.0
COc1ccc(Cc2nc(-c3ccccn3)no2)cc1OC	53	92	126	i	0.95	0	.
O=C(NC1CCCC1)c1cc(COc2ccc3ncccc3c2)on1	.	.	104	i	0.99	.	.
Cc1cc2n(n1)C(c1ccc(O)cc1)Nc1ccccc1-2 (stereo not given)	-23	117	97	i	0.88	20	-2.3
O=C1N=c2ccc(Br)cc2=C1c1sc(=S)n(NS(=O)(=O)c2ccccc2)c1O	21	128	97	i	0.94	3	.
CC/C(O)=N\S(=O)(=O)c1ccc(N=NN(C)C)cc1	67	95	103	i	0.99	-4	-2.1
COc1cc2[nH]c(=O)n(CCCCCC(=O)N3CCN(c4ccccc4)CC3)c(=O)c2cc1OC	-8	114	97	i	0.98	11	1.1
Cc1nc(Cl)c(C(=O)NC(=O)Nc2cccc(C(F)(F)F)c2)c(C)c1[N+](=O)[O-]	-21	57	78	i	0.81	-7	-0.6
O=C1N/C(=C/c2ccc(Br)s2)C(=O)N1c1ccccc1	.	.	106	i	0.89	5	.
O=C(O)c1cc2nccc(-c3ccc(F)cc3)n2n1	.	.	107	i	1	2	.
COc1ccc(NC(=O)C2=C(C)C(=O)OC23CCC(C)CC3)c(OC)c1 (stereo not given)	.	.	102	i	0.92	-9	-1.1
CCOC(=O)c1cnc2c(-c3ccc(Cl)cc3)cnn2c1C	-71	41	106	i	1	2	.
CCOC(=O)/C(C#N)=C1/CCCCCN1C	-39	85	103	i	0.91	-16	-1.9
Cc1ccc(Nc2nc(-c3c(C)n(C)n(-c4ccccc4)c3=O)c(C)s2)cc1	.	.	101	i	0.96	4	-1.9
COc1ccc(NC(=O)Cn2c(CCC(=O)O)ccc2-c2ccc(C)cc2)cc1	.	.	102	i	0.92	6	.
CC(NC(=O)C1c2ccccc2Oc2ccccc21)C1CCCO1 (stereo not given)	.	.	99	i	0.95	-9	.
Cc1c(O)c2c(=O)n(-c3ccccc3)c(-c3ccccc3)cc2oc1=O	.	.	102	i	0.84	-5	-0.3
CCOc1ccccc1NC(=O)C(Sc1nnnn1C)c1ccccc1 (stereo not given)	.	.	104	i	1	-11	.
CN1CCN(C(=O)c2cc(Oc3c(F)c(F)c(F)c(F)c3F)cc(C(=O)N3CCN(C)CC3)c2)CC1	.	.	96	i	0.94	-6	.

Record cards, as listed above:
Record of `Cc1ccc(Nc2nc(-c3c(C)n(C)n(-c4ccccc4)c3=O)c(C)s2)cc1` = Insulin prom inh = .; Insulin prom inh cell count = .; RGS16-Gao HTS = 101; HSV replic up = i; HSV replic up primary fold = 0.96; PKD1 inh = 4; GALR2 ag = -1.9
Record of `CC12CC(c3ccccc3O1)C(C(=O)N1CCOCC1)C(=O)N2` (stereo not given) = Insulin prom inh = 71*; Insulin prom inh cell count = 114*; RGS16-Gao HTS = 94; HSV replic up = i; HSV replic up primary fold = 0.85; PKD1 inh = -4; GALR2 ag = -3.0

The results go on.
SMILES	Insulin prom inh	Insulin prom inh cell count	RGS16-Gao HTS	HSV replic up	HSV replic up primary fold	PKD1 inh	GALR2 ag
CCOC(=O)Oc1ccc2oc(C)c(C(=O)OCCOC)c2c1	0	102	59	i	0.95	-13	-1.5
Cc1c(Cl)cccc1NC(=S)N/N=C/c1ccccc1Cl	.	.	82	i	0.71	.	.
O=C(CSc1ccccc1)Nc1cc(S(=O)(=O)N2CCOCC2)ccc1N1CCOCC1	.	.	13*	i	0.97	-4	.
O=C(OCC#CCSc1nnc(-c2ccc([N+](=O)[O-])cc2)o1)c1cccs1	6	102	68	i	0.96	2	-4.6
O=c1[nH]c(CCC2CCCC2)nc2ccccc12	48	126	101	i	1.1	-8	0.0
CCCn1c2ccccc2c2nnc(SCC(=O)OC)nc21	.	.	103	i	1.2	8	-1.4
NC(=O)COC(=O)c1cccc(S(=O)(=O)N2CCN(c3ccccc3)CC2)c1	.	.	108	i	0.76	1	.
COc1ccccc1S(=O)(=O)Cc1ccc(C(=O)N2CCN(c3cccc(Cl)c3)CC2)o1	.	.	95	i	0.6	13	-0.9
COc1ccc(Nc2nc(C)cc(C)c2C#N)cc1OC	.	.	101	i	0.75	-8	-2.0
COc1ccc2nc(Sc3c([N+](=O)[O-])nc(C)n3Cc3ccccc3)[nH]c2c1	.	.	95	i	0.89	-17	-0.3
COc1ccc(C2C(C#N)=C(C)NC3=C2C(=O)c2ccccc23)cc1 (stereo not given)	.	.	48	i	0.78	-4	-2.8
Cc1ccc2[nH]cc(C(=O)CN3CCN(c4ccccn4)CC3)c2c1	.	.	117	i	0.92	-5	0.0
COc1ccc(Cl)cc1C(=O)Nn1cnc2ccccc2c1=O	.	.	104	i	1.1	-7	-1.8
COCCN1Cc2cccc(C(=O)N3CCN(c4ccccc4)CC3)c2C1=O	.	.	102	i	0.95	0	0.2
COc1ccccc1OCCN(C#N)c1nc(N(C)C)nc(N(C)C)n1	33	84	81	i	0.97	0	.
COc1ccc(N2CCN(C(CNC(=O)C(=O)NCC3CCCO3)c3ccco3)CC2)cc1 (stereo not given)	13	121	101	i	1	-6	-0.5
Cc1ccc(Cl)cc1NC(=O)N[C@@H](CC(C)C)C(=O)O	.	.	103	i	1.2	.	.
CSCCC(NC(=O)c1ccccc1)C(=O)NC1CCCC1 (stereo not given)	-8	123	118	i	1.1	-4	-1.7
Cc1cc(C(=O)Nc2ccc3c(c2)OCO3)cs1	35	120	57	i	0.89	-1	1.4
ClC(Cl)(Cl)c1nc(N/N=C/c2ccncc2)c2ccccc2n1	-35	117	112	i	1	-7	.
O=C(Nc1ccccc1Cl)c1ccccc1	.	.	99	i	1.1	-4	.
CS(=O)(=O)Nc1ccc(C2=NN(S(C)(=O)=O)C(c3ccc4c(c3)OCO4)C2)cc1 (stereo not given)	-12	147	99	?	.	10	0.4

Bioassay records deposited in PubChem by several laboratories.
